Vif TR-FRET = inhibitors of Vif binding to APOBEC3G peptide, primary screen, biochemical, TR-FRET, GST-Vif 1-94, biotin-A3G peptide, dose response retest (AID 1117319). Virion infectivity factor (Human immunodeficiency virus type 1 group M subtype B (isolate …. TR-FRET GST-Vif / biotin-A3G peptide binding; higher % means a stronger effect; test concentration not given here; strong numbers were not always called active. inhibition, %, or IC50 in µM where a hit was titrated. actives 0.57% (n = 260,000);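 active = above the screen mean plus three standard deviations and confirmed in dose response; inconclusive = results disagree or hit not tested in dose response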;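 note: Vif residues 1-94 fused to GST binding biotinylated APOBEC3G peptide 110-148; 0% = full assay without inhibitor and 100% = GST in place of GST-Vif; retest series ran down from 100 µM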
Bfl-1 A1 inh = caspase 3/7 activation in MEF A1-2A-BIM cells, primary screen, A1 inhibitor project, cell-based, luminescence, HTS. Caspase-Glo 3/7 luminescence, 3 h; percent of clofoctol response, vehicle zero. caspase activation, % (concentration not given with the values). actives 0.066% (n = 330,000);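 active = over half of replicate activation scores above 10%, or exactly half above 10 with the replicate mean above 10; inconclusive = replicate mean below 10 yet half the replicates above 10; inactive = over half of replicates below 10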;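 note: wells of about 30 µL received 50 nL stock; many hits fall short of the cut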
LANA-H2B inh = blockers of LANA interaction with H2A/H2B – biochemical, FP readout, HTS, primary screen; actives 0.6% (n = 320,000); Protein LANA1 (Human herpesvirus 8 type P (isolate GK18)), Q9QR71; inhibition, % (concentration not given with the values); cell-free LANA-H2A/H2B peptide, fluorescence polarization; in the data active = inhibition mostly above about 10%, no sharp cut-off; inactive = mostly below about 6.7%;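 note: stock transfer was 7.5 nL into about 10 µL; 0% = median of vehicle wells and 100% = median of positive control wells; one replicate is shown; the record names a cut of 25% in any replicate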
RanGTP-Imp inh = inhibitors of RanGTP-importin-beta interaction, primary screen, biochemical, FRET, CFP-Ran, YFP-importin-beta, homogeneous; Ran GTPase (GTP-bound) - importin-beta complex; cell-free CFP-Ran/YFP-importin-beta FRET ratio; inhibition, % (no concentration beside the values); actives 1.1% (n = 300,000); AID 2216, 2009;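 active = most replicates above 15%; inconclusive = exactly half above 15%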;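 note: 0% = DMSO wells and 100% = Ran loaded with GDP instead of GTP; wells of about 40 µL received 100 nL stock; the first replicate is given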
T cruzi repl = inhibitors of intracellular T. cruzi growth, primary screen, luminescence, NIH3T3 host cells; T. cruzi beta-gal in NIH3T3, 90 h; inhibition, % (test concentration not listed); actives 1.4% (n = 300,000); AID 1885, 2009;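 active = mean inhibition across valid replicates above about 55%, limit read from the data; inconclusive = mean below that limit but half or more replicates reach it; inactive = mean below it, under half of replicates reach it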;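 note: signal also drops with host cell toxicity which is not excluded here; 0% = plate median of DMSO wells and 100% = zero luminescence signal; higher percent means less beta-gal luminescence so fewer parasites; stock transfer was 50 nL into about 50 µL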
AF4-AF9 inh = inhibitors of AF4 peptide binding to AF9, primary screen, biochemical, AlphaScreen, biotin-AF4 peptide, FLAG-AF9, single point | Protein AF-9 (Homo sapiens), P42568 | inhibition, % at 10 µM | actives 0.47% (n = 350,000) | AID 651704, 2012;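 active = every replicate reaching a set inhibition limit, whatever the replicate mean, cut at about 25% in these data; inconclusive = mean inhibition reaches that limit but some replicates miss it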;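 note: 0% = plate neutral control median and 100% = total signal loss; the record names both 10 and 1 µM as test concentration; the first replicate is given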
Target sequence (P42568 whole entry, looked up): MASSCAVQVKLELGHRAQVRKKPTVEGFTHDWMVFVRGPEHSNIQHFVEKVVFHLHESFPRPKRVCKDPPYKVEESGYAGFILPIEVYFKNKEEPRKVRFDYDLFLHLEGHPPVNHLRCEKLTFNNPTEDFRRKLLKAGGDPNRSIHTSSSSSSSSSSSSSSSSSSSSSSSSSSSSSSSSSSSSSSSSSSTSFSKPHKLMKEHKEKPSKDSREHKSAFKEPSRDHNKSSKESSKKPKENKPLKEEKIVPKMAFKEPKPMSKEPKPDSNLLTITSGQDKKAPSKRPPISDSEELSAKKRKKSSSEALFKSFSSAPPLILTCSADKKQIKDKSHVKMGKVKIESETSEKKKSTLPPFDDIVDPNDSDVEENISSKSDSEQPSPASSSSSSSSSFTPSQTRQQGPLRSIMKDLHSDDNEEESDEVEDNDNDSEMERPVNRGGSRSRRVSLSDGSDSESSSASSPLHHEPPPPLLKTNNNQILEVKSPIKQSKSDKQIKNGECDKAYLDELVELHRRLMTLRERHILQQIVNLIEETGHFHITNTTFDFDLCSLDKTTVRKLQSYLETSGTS
Calb FLC = C. albicans growth inhibition with fluconazole, primary screen, CaCi-2 strain, Alamar Blue fluorescence | growth inhibition, % (concentration not given with the values) | AID 1979, 2009 | actives 0.57% (n = 300,000) | C. albicans CaCi-2 (fluconazole-resistant clinical isolate) + fluconazole, 48 h;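 active = most replicates above 75%; inconclusive = exactly half above 75%; inactive = most below 75%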;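 note: all wells also contain fluconazole at 8 µg/ml as a sub-toxic cotreatment; 0% = median of DMSO wells and 100% = median of geldanamycin control wells; wells of about 8 µL received 7.5 nL stock; the first replicate is given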
Beta apoptosis = inhibitors of cytokine-induced beta cell apoptosis, primary screen, luminescence | INS-1E cytokine-induced death, ATP luminescence, 48 h; percent of positive-control rescue, neutral wells zero | protection from apoptosis, % (concentration not given with the values) | actives 0.8% (n = 300,000);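 active = all replicates at 75% or more, or half of them and the mean; inconclusive = half reach 75% but not the mean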;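 note: 0% = cytokine-treated negative control wells and 100% = positive control rescue; higher means more ATP so stronger rescue from cytokine killing; wells of about 40 µL received 100 nL stock; the first replicate is given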
Active calls of the source: *; ? = inconclusive; . = not tested or not shown; & = joins results of further samples.

SMILES	Vif TR-FRET	Bfl-1 A1 inh	LANA-H2B inh	RanGTP-Imp inh	T cruzi repl	AF4-AF9 inh	Calb FLC	Beta apoptosis
O=C(NCc1cccnc1)C(C(=O)c1ccc(F)cc1)n1ccccc1=O (stereo not given)	-3.7%	0.6	0.3	-0.9	-9.6	.	33.1	-2.2
COc1ccc(C(=O)N2CCN(CCCc3ccccc3)CC2)cc1OC	-3.4%	0.2	3.1	1.9	36.0	1.8	.	1.2
C=CCn1c(=O)[nH]c2cc(C(=O)N3CCN(c4cccc(Cl)c4)CC3)ccc2c1=O	-2.2%	1.7	0.6	0.2	9.4	.	?	12.5
CC(C)Oc1ccc(S(=O)(=O)N2CCCCC2)cc1NC(=O)CN1C(=O)NC(C)(C2CC2)C1=O (stereo not given)	.	0.1	0.5	.	.	0.7	.	6.5
CNS(=O)(=O)c1cccc(C(=O)OCC(=O)c2cc(C)n(-c3ccc4c(c3)OCO4)c2C)c1	14.7%&-1.6%	-0.2	0.3	-1.6	-8.5	.	1.3	-4.7
Cc1ccccc1NC(=O)COC(=O)CNC(=O)c1sc2ccccc2c1Cl	.	0.1	3.2	-1.2	-8.9	-0.4	-4.0	-7.5
NC(=O)c1ccsc1NC(=O)COC(=O)c1ccccn1	-7.8%	-0.7	1.7	.	.	1.9	.	-4.3
COc1ccc(-n2nc(C(=O)NCC(=O)N3CCN(c4ccccn4)CC3)c3ccccc3c2=O)cc1	-7.8%&-13.0%	-0.8	0.1	1.4	7.1	.	55.7	0.5
O=Cc1cccc(Oc2ncccn2)c1	8.4%	0.4	11.6	0.6	-13.5	1.0	-1.0	-1.6
Cc1cc(C)c(OCC(O)CN2CCN(c3ccccn3)CC2)c(C)c1 (stereo not given)	3.3%	0.3	7.1	0.3	-1.2	-1.1	-2.7	1.9
CN(C)CCN1C(=O)c2ccccc2C1=O	.	-0.2	-1.1	.	.	-6.4	.	-6.6
O=C(CN(CC1CCCO1)C(=O)CNS(=O)(=O)c1ccc(F)cc1)NC1CCCCC1 (stereo not given)	-10.8%	0.7	-1.7	-0.7	8.9	3.0	1.5	1.6
CCN(CC)S(=O)(=O)c1cc(C(=O)Nc2cc(Cl)ccc2N2CCN(C)CC2)ccc1Cl	20.8%	-0.6	-0.9	-9.2	38.6	.	26.2	-8.3
COc1ccc(CCC(=O)OCC(=O)NCc2ccccc2)cc1	-6.2%	-0.3	2.6	.	.	-7.6	.	-0.4
Cc1ccccc1CC1SC(N)=NC1=O (stereo not given)	.	-0.5	-4.1	-0.6	-3.2	-2.6	-3.4	-1.1
Cc1cc(C)n2c(SCC(=O)Nc3ccc(F)cc3)nnc2n1	.	0.8	6.2	3.8	8.5	3.4	-13.1	-10.9
O=C(c1ccc2ccccc2c1)N1CCOCC1	-6.8%	1.7	-4.4	0.5	-5.4	0.9	-3.2	-1.5
COc1ccc(N(CC(=O)N/N=C/c2ccc(OC)cc2OC)S(=O)(=O)c2ccccc2)cc1	.	0.7	3.6	-5.5	-9.1	1.9	-3.5	-1.4
COc1ccc(S(=O)(=O)N2CCOCC2)cc1NC(=O)CN1CCN(C)CC1	-2.6%	-0.2	0.0	?	-2.7	-10.6	-2.7	-2.9
O=C(NC1CCCCC1)C(c1ccc(F)cc1)N(CCCN1CCOCC1)C(=O)c1ccc(CN2CCOCC2)o1 (stereo not given)	1.6%	-0.5	-1.2	2.1	-1.2	1.0	-4.1	.
N#CC1=C(N)N(c2ccccc2Sc2ccccc2)C(=O)C1	4.4%	0.1	-3.8	1.7	-0.5	.	0.5	-0.1
CC(=O)c1ccc(N2CCN(C(=O)CCCn3c(=O)[nH]c4ccsc4c3=O)CC2)cc1	.	1.1	-3.9	?	-10.8	-0.1	30.4	-2.7
CSC(=S)N/N=C/c1ccc(Br)cc1	?	-0.4	-1.2	2.1	-0.5	0.6	-0.8	1.0
CCc1ccc(Nc2cnn(C34CC5CC(CC(CC(=O)O)(C5)C3)C4)c(=O)c2Cl)cc1	-1.4%	-0.1	1.7	2.5	-2.5	1.2	8.7	-4.5
O=C(Cn1cnc2ccccc21)N/N=C/c1ccc([N+](=O)[O-])cc1	.	-0.3	0.1	-3.6	-0.6	-2.3	?	3.6
Cn1nc(C(F)(F)F)c(-c2ccc(F)cc2)c1NC(=O)CSCC(=O)O	?	0.3	1.4	-3.3	-9.1	-1.8	5.6	6.3
NC(=S)c1c(Cl)cc(C(F)(F)F)cc1Cl	.	0.0	2.9	-1.2	-13.7	3.6	0.7	-2.9
Cc1cc(C)c(S(C)(=O)=O)c(NN)n1	14.5%	-0.8	0.3	-0.6	-1.6	-0.4	0.7	1.7
COc1ccc(-n2nc(C(=O)NCC(=O)NC3CCCCCC3)c3ccccc3c2=O)c(OC)c1	.	1.4	5.9	0.9	-6.4	0.2	2.3	4.6
CN1CCN(C(=S)c2cn(CCOc3ccccc3)c3ccccc23)CC1	.	-0.4	-2.8	-0.2	0.6	10.3	-2.3	1.8
CCOc1nc(-c2ccc(C)cc2)ccc1-c1noc(-c2cccnc2)n1	-7.5%	.	.	8.1	-10.2	.	-2.3	.
O=C(OCC(=O)N1CCOCC1)c1ccc(O)cc1	.	-3.8	-3.6	-0.3	-22.2	-2.4	-8.7	.
Cc1nc(SCC(N)=O)[nH]c(=O)c1Cc1ccc(OC(C)C)cc1	-2.0%	0.3	0.8	8.2	8.8	.	-0.5	5.1
COc1ccc(/C=C2\N=C3CCCN3C2=O)cc1	?	-1.0	2.4	5.0	-6.4	4.5	7.8	-3.7
Cc1ccc(C(=O)NC(=S)Nc2ccc(N3CCOCC3)cc2)cc1	-5.8%	2.0	3.1	3.1	-1.8	-2.6	21.3	1.5
NNC(=O)c1ccc(Cl)cc1Cl	-3.1%	-0.1	5.6	-1.7	1.3	0.4	-8.0	2.1
O=C(CSCc1ccccc1)N/N=C/c1ccccc1OCc1ccccc1	7.8%	-0.2	4.6	1.0	-8.8	5.2	2.5	0.2
Cc1nc(Nc2ccc(O)cc2)c2c3c(sc2n1)CCCC3	-2.7%	-0.1	-3.0	0.6	-2.7	4.4	28.2	8.9
C=C(C)COc1ccc2c(CC)cc(=O)oc2c1C	-15.7%	-0.5	-2.8	-1.0	10.1	.	-16.5	3.0
O=C(Nc1ccc2c(c1)OCCO2)C(c1ccc(F)cc1)N1CCCCC1 (stereo not given)	6.1%	0.5	-3.1	2.5	-3.6	.	-5.3	-0.8
O=C1/C(=C\Nc2ccccc2)CCN1c1ncccn1	-0.7%	-0.2	2.9	1.4	-6.3	.	-5.6	-3.2
CCc1ccc(C(=O)c2cncc(Br)c2)cc1	7.1%	-0.4	0.3	-1.8	27.8	.	-21.8	-6.9
Cc1ccc(S(=O)(=O)Cc2cn3cccnc3n2)cc1	30.1%	.	.	-2.9	-9.0	.	-6.7	.
CCOc1ccc(CCNC(=O)c2cccc(S(=O)(=O)N3CCCC3)c2)cc1OCC	-3.8%	0.8	-0.6	2.0	-8.0	2.4	5.7	.
O=C(Nc1cccc(Cl)c1)NC1(C(=O)NCc2cccs2)CCCCC1	1.3%	0.5	0.0	0.9	0.3	-3.4	-11.9	-0.7
COc1cc2c(c(OC)c1)C(c1cccc(OC)c1OC)CC(=O)N2 (stereo not given)	4.5%	0.5	2.0	-2.8	16.6	-7.6	-1.7	2.6
CCc1ccccc1NC(=O)C1CCN(S(C)(=O)=O)CC1	.	0.0	-0.5	3.4	-1.2	-3.9	6.1	-7.3
CC(C)N=C1NN=C(c2cccs2)C(CC(=O)O)S1 (stereo not given)	1.5%	-1.3	-1.1	-1.7	-14.3	-13.3	-2.7	-2.7
COc1ccc(N(C)S(=O)(=O)c2cccc(C(=O)OCC(=O)Nc3sc4c(c3C#N)CCCCC4)c2)cc1	.	-0.6	7.0	7.1	-8.3	-3.1	-10.8	8.6
COc1ccc(-c2c3c(nc4sc5c(=O)[nH]c(C)nc5c24)CCC3)cc1	-3.7%	-0.2	-0.2	2.1	5.0	.	8.1	27.7
CC1CCCC(NC(=O)c2cccc(S(=O)(=O)N3CCCCC3)c2)C1C (stereo not given)	3.6%	2.1	-8.2	5.4	19.0	-1.2	13.1	3.6
CC(NS(=O)(=O)c1ccc2c(c1)CC(=O)N2C)c1ccccc1 (stereo not given)	.	0.6	0.9	2.1	8.7	0.2	5.3	-1.4
O=C(Nc1ccc2oc(-c3cccnc3)nc2c1)c1cc2ccccc2o1	20.3%	-0.4	-2.8	4.0	-2.0	.	56.8	-1.8
O=C(O)CC1(CC(=O)NCc2cc(F)cc3c2OCOC3)CCCCC1	.	0.7	3.1	-2.9	-11.6	0.8	-5.2	-12.1
COC(=O)C1=C(C)N(c2cc(Cl)cc(Cl)c2)C(=O)C1	3.6%	0.4	1.8	10.5	-8.4	.	28.0	-0.2
O=C(NCCCn1ccnc1)c1csc2ccccc12	-1.3%	-0.2	0.6	-1.5	?	6.0	-4.6	-3.2
NC(Cc1c[nH]c2ccccc12)C(=O)NCc1ccccc1 (stereo not given)	.	0.7	-2.2	7.8	2.6	1.7	-2.7	.
Cc1c(C(=O)N2CCCCC2)c(S(=O)(=O)N2CCC(C)CC2)c(C)n1C	.	2.5	3.1	-1.2	0.8	3.2	0.2	-0.6
O=C(c1ccncc1)N1CCN(CCc2ccccc2)CC1	.	0.1	-3.0	-4.7	2.6	-0.4	6.1	.
O=C1NC(c2ccc3c(c2)OCO3)Oc2ccccc21 (stereo not given)	?	0.0	0.9	-0.1	-4.0	.	-5.1	-2.0

Further results:
SMILES	Vif TR-FRET	Bfl-1 A1 inh	LANA-H2B inh	RanGTP-Imp inh	T cruzi repl	AF4-AF9 inh	Calb FLC	Beta apoptosis
COC(=O)c1ccc(/C=N/NC(=O)C2CC(=O)N(c3ccc(OC)cc3)C2)cc1 (stereo not given)	.	0.4	-1.2	-1.3	-19.5	-8.6	-6.5	-5.6
c1ccc(-c2ccc(-n3ccnc3)cc2)cc1	-2.2%	-6.7	6.6	3.8	55.8*	.	-29.8	-4.6
O=C(Nc1ccc(S(=O)(=O)NCC2CCCO2)cc1)c1cccc(F)c1 (stereo not given)	20.5%	-0.4	-0.5	-0.7	-12.0	1.5	-4.3	2.9
COC(=O)c1c(N)c(C#N)c(C)n1-c1ccccc1	5.4%	-0.1	7.9	-4.9	8.0	.	-4.5	-4.8
CC(C)CNC(=O)c1cc(=O)[nH]c2ccc(S(=O)(=O)Nc3ccc(F)cc3)cc12	-3.0%	1.2	3.9	0.3	1.3	-2.0	-8.5	9.4
Cc1noc(C(=O)Nc2cccnc2)c1Cl	-2.8%	0.7	-0.3	1.4	0.0	-12.9	-5.1	.

Random draw from the library; about 4.3% have a hit in one of these screens.
